# hNpr1 antagonist: Natriuretic polypeptide receptor (hNpr1) antagonism - Primary qHTS. Atrial natriuretic peptide receptor 1 (Homo sapiens), P16066. HEK293 hNpr1 GloSensor cGMP, ANP-stimulated luminescence. Potency, µM (highest dose often 46.3 µM), without a hit: at the highest dose activity change, negative = inhibition, most hits filed as inhibitors. 76,000 tested, 1.6% active. AID 1347048, 2019; active = well fitted inhibition curve with a large enough effect; inconclusive = small, poorly fitted or top-dose-only effect; inactive = no such curve, though single readings can be large or run the other way;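 note: nearly all actives have a fitted effect of over 60% in size; nearly all hits also lower the signal before the agonist is added; a reference antagonist and vehicle were the controls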
# Target sequence (P16066 whole entry, looked up): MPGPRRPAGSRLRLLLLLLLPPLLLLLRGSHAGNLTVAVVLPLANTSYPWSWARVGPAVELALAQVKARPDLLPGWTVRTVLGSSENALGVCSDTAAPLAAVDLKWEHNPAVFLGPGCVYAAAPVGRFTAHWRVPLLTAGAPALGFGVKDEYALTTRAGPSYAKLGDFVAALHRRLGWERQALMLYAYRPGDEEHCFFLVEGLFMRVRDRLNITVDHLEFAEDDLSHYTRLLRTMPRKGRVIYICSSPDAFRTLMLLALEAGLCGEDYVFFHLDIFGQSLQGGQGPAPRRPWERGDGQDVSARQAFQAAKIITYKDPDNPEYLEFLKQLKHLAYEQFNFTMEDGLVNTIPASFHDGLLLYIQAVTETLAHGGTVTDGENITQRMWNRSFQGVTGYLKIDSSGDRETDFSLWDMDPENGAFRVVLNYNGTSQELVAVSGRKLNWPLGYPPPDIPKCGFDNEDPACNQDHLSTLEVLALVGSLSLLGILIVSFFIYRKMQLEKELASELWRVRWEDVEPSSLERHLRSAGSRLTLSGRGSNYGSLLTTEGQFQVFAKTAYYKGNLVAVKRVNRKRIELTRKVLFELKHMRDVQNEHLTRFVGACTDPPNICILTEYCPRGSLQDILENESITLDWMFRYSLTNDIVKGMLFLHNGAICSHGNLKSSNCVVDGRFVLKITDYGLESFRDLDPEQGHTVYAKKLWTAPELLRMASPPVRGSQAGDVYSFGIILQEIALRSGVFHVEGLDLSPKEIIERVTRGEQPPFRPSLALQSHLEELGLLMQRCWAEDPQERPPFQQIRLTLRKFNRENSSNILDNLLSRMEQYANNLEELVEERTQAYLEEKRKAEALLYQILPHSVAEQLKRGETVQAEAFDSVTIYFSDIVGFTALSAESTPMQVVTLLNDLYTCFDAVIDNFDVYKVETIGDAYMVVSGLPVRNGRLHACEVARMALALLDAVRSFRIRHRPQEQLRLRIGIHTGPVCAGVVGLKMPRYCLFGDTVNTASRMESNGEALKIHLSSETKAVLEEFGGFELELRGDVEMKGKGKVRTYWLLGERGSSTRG
#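 Compound pre-incubated 30 min at room temperature on GloSensor-loaded HEK293 cells stably carrying hNpr1 and the pGS-40F cGMP biosensor. Stimulation uses hNppA at 0.1 nM final; luminescence is taken at baseline and 20 min post-agonist.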
# * hit, by the source's call; ? = inconclusive; [ ] = remark or other dose. % is set by controls: 0 for no effect and ±100 for the full control effect; potency is the fitted concentration of half-maximal effect.
Compound	hNpr1 antagonist
CN(CC1CCOC1)S(=O)(=O)c1cc(F)cc(F)c1 (configuration not stated)	-1%
COc1cccc(CC(=O)N2CCN(C(=O)c3nnn4c3COC(c3ccc(C)cc3)C4)CC2)c1 (configuration not stated)	?
CCc1nn(-c2ccccc2)c(Oc2ccccc2OC)c1CCC(=O)NCCOC	-3%
Cc1ccc(OC(=O)N2CCC(Oc3ccc4c(cnn4CCC(=O)O)c3)CC2)cc1	4%[70.6 µM]
CCC(CC)n1c(=O)n(Cc2ccc(C(=O)N(C)C)o2)c2cc(C(=O)O)cnc21	0%
COc1cc(NC(=O)O[C@@H]2CC[C@]3(C)C(CC[C@@H](O)[C@H]3CC(=O)N3CCCCC3)[C@]2(C)CO)cc(OC)c1OC (some centres not stated)	3%
O=C(COc1ccccc1)N1CCC(c2n[nH]c(=O)n2Cc2ccc(F)cc2)CC1	0%
Cc1ccc(-c2nc(C3CC(=O)N(C4CCCCC4)C3)no2)cc1C (configuration not stated)	?
Cc1ccc(C)c(C(=O)N[C@@H]2CN(c3ccncn3)C[C@H]2CO)c1	-15%
COC[C@@H]1[C@H](C(=O)N2CCN(c3ccccc3OC)CC2)CCC(=O)N1C	-7%
O=C1N(C2CCN(C3CCC3)CC2)C(c2ccncc2)C12CCCCC2 (configuration not stated)	9%
COc1ccc(C)cc1NC(=O)C1CC(=O)N(c2n[nH]c3ccccc23)C1 (configuration not stated)	-2%
CNC(=O)[C@@H]1CN(C(=O)c2cc3ccccc3[nH]2)C[C@H]1c1nc(C)no1	3%
c1ccc(-c2ccc(CN3CCCC3)cc2)c(CN2CCOCC2)c1	-1%
O=C(c1ccc(Cl)cc1)N1CCOCC2(CN(Cc3cc(F)cc(F)c3)C2)C1	-9%[70.6 µM]
O=C(NCc1cn[nH]c1-c1cccs1)c1cn(CCC2CCCCN2)nn1 (configuration not stated)	2%
O=c1[nH]c(C2CCCN(Cc3ccc(-c4ccsc4)cc3)C2)nc2ccc(F)cc12 (configuration not stated)	-27%
CCOc1ccc(CN2CCCC(CO)(CCc3ccccc3)C2)cc1CO (configuration not stated)	5%
N#Cc1cccc(CN2CCc3nc(C(=O)NCc4ccncc4)oc3CC2)c1	-26%[70.6 µM]
COCCOc1ccc(C(=O)N[C@@H]2CN(C(=O)NC(C)C)CCC[C@H]2O)cc1	2%[70.6 µM]
CCOc1ccc(C(=O)N2CCC(c3n[nH]c(=O)n3-c3ccccc3)CC2)cc1OCC	-6%
CCOCc1nc(C2CCCN(C(=O)c3cnccn3)C2)no1 (configuration not stated)	1%
O=C(C1CC1)N1CCCN(C(=O)C2(c3ccccc3)CC2)c2ccccc21	-6%
Cc1cnc(CC2CCCNC2)n1C(C)C (configuration not stated)	7%
O=C(N[C@@H]1CCOC[C@H]1OCCO)C1(S(=O)(=O)c2ccccc2)CC1	4%
CCOC(=O)C[C@@H]1C[C@@H](C(C)C)[C@H](CNC(=O)c2ccc(F)cc2)C=C1C	?
O=C1CCN(S(=O)(=O)c2ccccc2)CCCN(C(=O)Cc2cccc(F)c2)CCN1	6%
O=C1COc2ccc(Oc3ccccc3)nc2CN1CCOc1ccccc1	?
CC(C)(C)c1cc(C[C@H]2CNCC[C@H]2CC(=O)N2CCC(Cc3ccccc3)CC2)no1	3%
CN1CCC2(C1)CN(CC1CC1)c1ccc(C(=O)NC3COC3)cc12 (configuration not stated)	3%[70.6 µM]
CN(C)c1cccc(-c2cn(C)c(=O)n3cc(COc4ccnn4C)nc23)c1	5%[70.6 µM]
Cc1cccc(CNC(=O)c2c(OCC(C)C)cc(=O)n3c2CCCCC3)c1	1%
CN(CC1CCOCC1)S(=O)(=O)c1ccccc1Br	-8%
Cc1noc(C)c1S(=O)(=O)N1CCC[C@H]1C(=O)N1CCCCCCNC(=O)CC1	-1%
CCCCCNC(=O)Cc1csc2nc(C)c(-c3cc(C)n(-c4cccc(C)c4)n3)c(=O)n12	-2%
CCOc1ccccc1C(=O)N(C)C1CCc2nn(CC3CC3)c(=O)n2CC1 (configuration not stated)	-4%
COc1ccc(CNC(=O)N2CCCCCCNC(=O)CC2)cc1	-3%
CCOC(=O)Cn1nc2n(c1=O)CCN(Cc1cc(C)ccc1C)C2=O	27%
Cc1oc2c(c1C(=O)NC1CCCC1)CN(Cc1ccc(F)cc1)CC2	-19%
O=C(C[C@H]1NC(=O)c2ccccc2NC1=O)Nc1nc(-c2ccc3c(c2)OCO3)cs1	-8%

# Shown with the structure last: 4 of the compounds above.
hNpr1 antagonist | smiles
1% | Cc1cccc(CNC(=O)c2c(OCC(C)C)cc(=O)n3c2CCCCC3)c1
-4% | CCOc1ccccc1C(=O)N(C)C1CCc2nn(CC3CC3)c(=O)n2CC1 (configuration not stated)
? | CCOC(=O)C[C@@H]1C[C@@H](C(C)C)[C@H](CNC(=O)c2ccc(F)cc2)C=C1C
-6% | O=C(C1CC1)N1CCCN(C(=O)C2(c3ccccc3)CC2)c2ccccc21

# The list continues:
Compound	hNpr1 antagonist
COCCN1C(=O)CS(=O)(=O)C12CCN(C(=O)Cc1ccc(OC)c(Cl)c1)CC2	-6%
COc1ccc(Cn2c3c(c(=O)n2Cc2ccccc2)CCN(C(=O)Cc2cccc(F)c2)C3)cc1	-2%
COc1ccc2nc3n(c2c1)[C@@H](CNS(=O)(=O)Cc1ccccc1)COC3	-17%[70.6 µM]
COc1ccccc1-c1cnc(NC(=O)c2ccc(F)c(Cl)c2)c2c1CCO2	-25%[70.6 µM]
O=C(c1cccc(Cl)c1)N1CCC(N(C(=O)C2CC2)C2CCOCC2)CC1	-7%
COc1ccc(CC(=O)N2CCC(c3n[nH]c(=O)n3Cc3ccc(OC)cc3)CC2)cc1	2%
CC(=O)N1CCC2(CC1)CCN(c1ncccc1C#N)CC2CO (configuration not stated)	6%
O=C(CCC1CCCC1)NCC(=O)N1CCCCCNC(=O)CC1c1ccccc1 (configuration not stated)	0%
COc1cccc(CCC(=O)Nc2cccc(-c3nnc4n3CCCC4)c2)c1	-20%
CN(Cc1cn(-c2ccccc2)nn1)Cc1ccccc1-n1cccn1	3%
CN(C)C[C@@H]1CN(c2ncccn2)C[C@H]1NC(=O)c1ccc(Cl)cc1	7%
OCC1CN(c2ccncn2)CC12CCN(CC1CCCCC1)CC2 (configuration not stated)	4%
Cn1cc(CN2CCC(C3CCN(S(C)(=O)=O)CC3)C2)c2ccccc21 (configuration not stated)	0%
Fc1c(F)c(F)c(CN2CCCC3(CCNC3)C2)c(F)c1F (configuration not stated)	0%
CC(C)Cn1ccc2c(NC(=O)C[C@H]3NC(=O)c4ccccc4NC3=O)cccc21	-13%
NC(=O)CCN1CCc2onc(-c3ccccc3F)c2C1	5%
CCCC(=O)Nc1ccc([C@H]2OCC(=O)N(CC(C)C)[C@@H]2CO)cc1	-1%[70.6 µM]
COCCN1CCCC2(CCN(c3nc(OC)cc(OC)n3)C2)C1=O (configuration not stated)	-3%
COc1ccc(C)cc1NC(=O)Cn1c(C)cc2nc3n(c(=O)c21)CCCC3	-16%
CN1CCC(Nc2ccc3c(n2)CN(Cc2ccc(C(F)(F)F)cc2)C(=O)CO3)CC1	-8%[70.6 µM]
COc1ccc(C(=O)N2CCN(Cc3ccc(=O)n(C)c3)CC2)cn1	4%
O=C1NCCCCCCN(Cc2ccncc2)[C@@H]2CN(Cc3ccncc3F)CC[C@@H]12	-12%
O=C(O)C1CC2(CCN(Cc3cc4ccccc4o3)CC2)CN1C(=O)C1CC1 (configuration not stated)	12%
O=C(c1ccccn1)N1CCCCCC1CN1CCCC1 (configuration not stated)	-6%
CN1CCCC1c1nc(C2CN(C(=O)c3ccoc3)C2)no1 (configuration not stated)	15%
CC(C)NC[C@H]1Cn2c(-c3ccc(Cl)cc3)cnc2CO1	-1%[70.6 µM]
CN(C)c1ccc(-c2nnc([C@H]3CCN(Cc4ccccn4)C3)o2)cc1	2%[70.6 µM]
COc1ccc(CCc2nc3nccc(-c4ccncc4)n3n2)cc1OC	7%
Fc1ccc2c(c1)nc1n2[C@@H](CNC2CCCCC2)COC1	-18%[70.6 µM]
CN1CCc2c([nH]c3ccccc23)C12CCN(S(=O)(=O)c1cccnc1)CC2	-2%
CCCn1cc2c3c(cccc31)CN(C(=O)c1ccc(OC)cc1)CC2	-13%
CCc1noc(-c2cn(C3CCN(C(=O)Cc4cccc(Cl)c4)CC3)nn2)n1	-11%
COc1ccc(Cl)cc1C(=O)N1CCC(c2n[nH]c(=O)n2-c2ccc(C)cc2)CC1	6%
CN(C)[S+](=O)([O-])c1ccc2c(c1)OCCN(Cc1cccs1)C2	-9%[70.6 µM]
NC(=O)[C@H]1C[C@@H](O)[C@H](O)[C@H]2[C@@H]1SC(=Nc1ccccc1)N2CC1CCCCC1	-1%[70.6 µM]
COc1ccc(Cl)cc1NC(=O)NCCc1noc(C)n1	-21%
O=C(N[C@H]1[C@H]2CCO[C@H]2[C@@H]1N1CCCC1)c1cc2c(s1)CCCCC2	-2%
COC(=O)CCNC(=O)C1c2ccccc2C(=O)N(CC(C)C)C12CCCC2 (configuration not stated)	-1%
COc1ccc(C(=O)N2CCCC3(CC(c4cccc(C(F)(F)F)c4)=NO3)C2)cc1 (configuration not stated)	-23%
O=C(Nc1ccc(Cl)cc1)c1nc2c(o1)CCN(CC1CC1)CC2	?

# Shown field by field: 2 of the compounds above
> O=C(c1ccccn1)N1CCCCCC1CN1CCCC1 (configuration not stated)
  hNpr1 antagonist = -6%

> CN1CCCC1c1nc(C2CN(C(=O)c3ccoc3)C2)no1 (configuration not stated)
  hNpr1 antagonist = 15%

# The listing continues:
Compound	hNpr1 antagonist
COc1ccc(-c2ccc3nnc(CNC(=O)C(C)Oc4cccc(Cl)c4)n3n2)cc1 (configuration not stated)	2%
Cc1ccc(NC2CCCN(C(=O)Cc3c[nH]c(=O)n(C)c3=O)C2)cc1C (configuration not stated)	-1%
Cc1ccc(CNC(=O)N2CCC3(CC2)C(C(=O)O)CC(=O)N3C)cc1 (configuration not stated)	1%
Cc1cnc(CC2CCN(C(=O)c3cccnc3)C2)n1C(C)C (configuration not stated)	-4%
COc1ccc(C(C(=O)O)N2CCN(Cc3csc(C)n3)CC2)cc1C (configuration not stated)	10%
COc1cccc(CN2CCCCCNC(=O)CC2c2ccccc2)c1 (configuration not stated)	-12%
Cc1nc(-c2c3n(c(=O)n(Cc4ccc(Cl)cc4)c2=O)CCCCC3)no1	9%
O=C(COc1ccccc1)N1CC[C@H]2CC(=O)N(C3CC3)CC[C@H]2C1	1%[70.6 µM]
CCOc1ccc(C(=O)N2CCCN(c3cc(-c4ccc(Cl)cc4)[nH]n3)CC2)cc1	?
COc1cccc(C(=O)N2CC(Oc3ccccc3-c3nc(C4CC4)no3)C2)c1	?
CC(C)(C)C(=O)NCCc1noc(C2CC2)n1	0%
O=C(CC1CCCN(c2cn[nH]c(=O)c2)C1)NCc1ccc(F)cc1F (configuration not stated)	0%
COCCNc1ncccc1-c1noc([C@@H]2CCCN2Cc2ccco2)n1	1%[70.6 µM]
COc1ccc(C(=O)N2CCN(C(=O)c3nnn4c3COC(c3ccc(C)cc3)C4)CC2)cc1 (configuration not stated)	3%
CNC(=O)N1CCCC(Cn2cnc3cccnc32)C1 (configuration not stated)	-2%
COCCn1c(C)nnc1-c1cc(Nc2cccc(OC)c2)ccn1	-5%[70.6 µM]
COc1ccc(S(=O)(=O)N2CCCC(Cc3noc(-c4ccncc4)n3)C2)cc1 (configuration not stated)	?
O=C(Cc1ccccc1Cl)N1CCCN(c2cc(-c3ccccc3)[nH]n2)CC1	-9%
CN1C(=O)COC[C@@H]1[C@H](O)c1ccc(NC(=O)CC(C)(C)C)cc1	2%[70.6 µM]
COCCNC(=O)c1cc(-c2ccc(C)nc2)cc2ncn(C)c12	-2%[70.6 µM]
CC(=O)N1CCCN(Cc2nc3c(n2Cc2ccccc2)C(=O)N(CC2CC2)CCN3)CC1	8%
N#Cc1ccc(CC(=O)N2CC(CNc3cccnc3)C3(C2)CN(c2ccccc2)C3)cc1 (configuration not stated)	-2%[70.6 µM]
Cc1noc(-c2cn(C3CCN(C(=O)c4ccco4)CC3)nn2)n1	2%
COc1ccc(-n2ccnc2CN2CCCC(O)(CO)C2)cc1 (configuration not stated)	0%
CCOc1cc(=O)n2c(c1C(=O)N1CCN(c3ccccc3F)CC1)CCCC2	3%
O=C(Cn1nc2c(cc1=O)CCCC2)Nc1nc2ccccc2s1	0%
CCc1cc(=O)n(CC(=O)Nc2cc(OC)ccc2OC)c(N2CCOCC2)n1	-5%
Cc1ccncc1C(=O)N1C[C@@H](COCC2CC2)[C@H](c2ccccn2)C1	-4%
O=C(c1ccccc1)N1CCn2c(nnc2[C@@H]2C[C@@H](O)CN2Cc2ccccc2)C1	8%
CCNC(=O)[C@@H]1CCCN1[C@@H](C(=O)NC)c1ccccc1OC	-4%[70.6 µM]
CNC(=O)[C@@H]1C[C@@H](n2cc(CNC(=O)Cc3ccc(F)cc3)nn2)CN1	-1%
COCCCNC(=O)N1CCCN(S(C)(=O)=O)C(c2ccccc2)CC(=O)NCC1 (configuration not stated)	-2%
CC(=O)N1CCC(NC(=O)c2nc(-c3ccccc3)cc3[nH]ccc23)CC1	1%[70.6 µM]
O=C(c1ccc(F)cc1Cl)N1CCN(c2cc(C(F)(F)F)ncn2)CC1	-9%

# A portion of the library; the hit share may differ from the screen's.
